Bioassay records deposited in PubChem by several laboratories.
WNV protease inh: WNV NS2B-NS3 proteinase inhibition | z-score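 (tested at a level between 10 and 100 µM)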 | 65,000 tested, 0.18% active | P06935 | WNV NS2B-NS3 protease, fluorogenic substrate Ex360/Em465; stronger effect = lower value;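 active means z-score at -3 or under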;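 further: score is relative to mean and spread of the compound wells of a plate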
Target sequence (P06935 1371-1501 limits assumed): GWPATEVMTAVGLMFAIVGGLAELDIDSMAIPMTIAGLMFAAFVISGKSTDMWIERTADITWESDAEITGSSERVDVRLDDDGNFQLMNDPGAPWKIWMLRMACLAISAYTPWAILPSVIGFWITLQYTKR
Target sequence (P06935 1502-1679 limits assumed): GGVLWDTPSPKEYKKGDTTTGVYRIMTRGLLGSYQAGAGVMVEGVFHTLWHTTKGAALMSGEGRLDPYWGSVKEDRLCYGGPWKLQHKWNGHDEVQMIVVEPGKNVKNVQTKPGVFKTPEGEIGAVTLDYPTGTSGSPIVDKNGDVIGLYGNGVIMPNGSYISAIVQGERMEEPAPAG
Hsc70 ATP site: Hsc70 inhibitors, probe displacement, primary screen, biochemical, fluorescence polarization (AID 568) | Hsc70 fluorescence polarization, probe displacement; higher % means a stronger effect; strong numbers were not always called active | 83,000 tested, under 10 active | displacement, % at 20 µM, or IC50 in µM where a hit was titrated;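 active means displacement above 50% without optical interference and an IC50 on retest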;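 further: ATPase domain with a fluorescein-tagged ATP probe; 0% = vehicle and 100% = excess ADP; read after one hour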
MT1-MMP reporter: inhibitors of MT1-MMP promoter transcription, cell-based, luciferase reporter, luminescence (AID 618); calls from a first round at 10 µM; hits with a dose series show EC50 in µM; 87,000 tested, 0.62% active; MT1-MMP promoter luciferase reporter cells, luminescence;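 active means over half of the reporter light lost at 10 µM or EC50 under 50 µM; inactive means the rest and hits that failed the dose series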;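 further: actives suppress MT1-MMP promoter-driven transcription so potencies describe inhibitors; HT1080 fibrosarcoma cells; overnight exposure; toxic or luciferase-blocking compounds were not removed from the actives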
Numbers without * were called inactive; i = inactive; nt = not tested or not shown; & = joins results of further samples. Random draw from the library; about 0.8% have a hit in one of these screens.

SMILES	WNV protease inh	Hsc70 ATP site	MT1-MMP reporter
O=C(NCC1CCCO1)c1ccc(COCC(F)(F)C(F)F)cc1 (stereo not given)	-0.58	-1.9%	i
COc1ccc(N2CCN(Cc3nc4c(c(=O)n(C)c(=O)n4C)n3CCc3ccccc3)CC2)cc1	0.48	-5.3%	i
O=C(Nc1sc2c(c1C(=O)NCc1ccco1)CCCC2)c1ccc2c(c1)OCO2	0.76	-9.3%	i
Cc1[nH]n(-c2ccc([N+](=O)[O-])cc2)c(=O)c1N=Nc1nc2ccccc2s1	nt	0.7%	i
COc1ccc(S(=O)(=O)Nc2cc3c(C(C)=O)c(C)oc3c3ccccc23)cc1	nt	-4.2%	i
COc1ccc2c(c1)CCc1c(C(=O)NCCN3CCOCC3)noc1-2	2.12	-2.8%	i
CCn1c(SCC(=O)c2ccc3c(c2)OCCO3)nnc1C(C)C	-0.79	1.0%	i
COc1ccc(OC)c2[nH]c(=O)c(CCNS(=O)(=O)c3ccccc3)cc12	0.18	8.4%	i
COC(=O)c1sc(OC)cc1OCc1ccc(C)cc1	nt	-2.5%	i
COc1cccc(OCc2nc3c4cnn(-c5ccccc5)c4ncn3n2)c1	-0.5	-2.0%	i
Cc1cc(C)nc(N2CCCC(C(=O)NCc3ccccc3)C2)n1 (stereo not given)	nt	5.3%	i
O=C1c2ccccc2-c2c1cccc2C(=O)N1CCCCC1	nt	3.4%	i
CCOC(=O)c1nc2cc3n(c(CC(C)C)c-2c1C)CC(C)=C3C	nt	-0.6%	i
Cc1ccc(OCc2nnc(NC(=O)Cc3cccs3)s2)cc1	0.41	-5.0%	i
COc1cc2c(cc1OC)C(c1cc3cc4c(cc3[nH]c1=O)OCO4)N(C(=O)C1CC1)CC2 (stereo not given)	nt	0.3%	i
COc1ccc(N2CCN(C(=O)NC3CCCCC3)CC2)cc1	nt	2.6%	i
COc1cc(S(=O)(=O)n2nnc3ccccc32)c(OC)cc1Cl	0.06	2.8%	i
Cc1ccc(-c2nnc3sc(-c4ccncc4)nn23)cc1	-1.14	2.0%	i
Cc1cc(C(C)(C)C)oc1C(=O)Nc1ccc(CC(=O)O)cc1	2.38	5.5%	i
CCC1(C)Cc2c(sc3nc(SC)n(Cc4ccccc4)c(=O)c23)CO1 (stereo not given)	nt	-0.7%	i
O=C(O)C1CCCCC1C(=O)Nc1cc(Cl)ccc1Cl (stereo not given)	nt	-1.2%	i
O=C(CC(c1ccco1)C1CCCCC1=O)c1ccco1 (stereo not given)	-0.74	-4.7%	i
COc1cccc(/C=N/NC(=O)CO/N=C(\C)c2cccs2)c1OC	nt	7.1%	i
CCOc1ccccc1N(C(=O)c1snc(C(N)=O)c1N)C(C(=O)NC1CCCC1)c1ccco1 (stereo not given)	-0.81	-2.9%	i
COc1ccc(N(CC(=O)NC2CCCC2)C(=O)Cn2nnc(-c3ccc(C)cc3)n2)cc1	0.85	1.2%	i

An excerpt of these results, with values under each structure:
Second line of a record: WNV protease inh, Hsc70 ATP site, MT1-MMP reporter
> Cc1[nH]n(-c2ccc([N+](=O)[O-])cc2)c(=O)c1N=Nc1nc2ccccc2s1
  nt, 0.7%, i
> COc1ccc(S(=O)(=O)Nc2cc3c(C(C)=O)c(C)oc3c3ccccc23)cc1
  nt, -4.2%, i
> COc1ccc2c(c1)CCc1c(C(=O)NCCN3CCOCC3)noc1-2
  2.12, -2.8%, i
> CCn1c(SCC(=O)c2ccc3c(c2)OCCO3)nnc1C(C)C
  -0.79, 1.0%, i
> COc1ccc(OC)c2[nH]c(=O)c(CCNS(=O)(=O)c3ccccc3)cc12
  0.18, 8.4%, i

Back to the main list with the 4 entries that preceded the break.
SMILES	WNV protease inh	Hsc70 ATP site	MT1-MMP reporter
O=C(CC(c1ccco1)C1CCCCC1=O)c1ccco1 (stereo not given)	-0.74	-4.7%	i
COc1cccc(/C=N/NC(=O)CO/N=C(\C)c2cccs2)c1OC	nt	7.1%	i
CCOc1ccccc1N(C(=O)c1snc(C(N)=O)c1N)C(C(=O)NC1CCCC1)c1ccco1 (stereo not given)	-0.81	-2.9%	i
COc1ccc(N(CC(=O)NC2CCCC2)C(=O)Cn2nnc(-c3ccc(C)cc3)n2)cc1	0.85	1.2%	i
CCCCNC(=O)C1COc2ccccc2O1 (stereo not given)	-1.04	6.6%	i
CC(c1ccccc1)N1CC(C(=O)NC2CCCC2)CC1=O (stereo not given)	-0.83	3.3%	i
COc1cc2nc(SCC(N)=O)n(CCC3=CCCCC3)c(=O)c2cc1OC	0.59	0.5%	i
N#Cc1ccc(CSCC(=O)O)cc1	-0.03	10.8%	i
O=c1c2ccccc2sn1-c1cc(S(=O)(=O)N2CCOCC2)ccc1N1CCOCC1	0.45	3.7%	i
CN(C)C(CNC(=O)C1CCCN(C(=O)c2ccc(Cl)cc2)C1)c1ccco1 (stereo not given)	-0.39	-0.8%	i
Cc1ccc(/C=c2\sc3nc(-c4ccco4)nn3c2=O)o1	-1.51	-0.9%	i
CC(C)(C)NC(=O)C(c1ccco1)N(C(=O)c1ccc(CN2CCOCC2)o1)c1ccccc1 (stereo not given)	2.42	5.0%	i
Cc1c(C(Nc2ccccn2)c2ccccc2)c(=O)n(-c2ccccc2)n1C (stereo not given)	-0.13	3.7%	i
Cn1c2ccccc2c2c(C(=O)O)cn(C3CCCC3)c(=O)c21	-0.48	-0.3%	i
CSc1nc(C)cc(Oc2ccc(=O)n(C)n2)n1	0.85	2.0%	i
COc1ccc(C(=O)NC2CCN(C(=O)NC3CCCCC3)CC2)cc1	0.49	-0.5%	i
CCOC(=O)C1CCN(C(=O)CC(NS(=O)(=O)c2ccc(OC)cc2)C(C)C)CC1 (stereo not given)	1.11	-2.6%	i
COc1ccc(N2CCN(Cc3cc(=O)oc4cc(C)c(Cl)c(C)c34)CC2)cc1	-0.21	3.6%	i
O=c1c2cccc3c(N4CCOCC4)ccc(c32)c2nc3ccccc3n12	1.31	-11.5%	i
COc1ccc(N2C(=O)CSC23C(=O)Nc2ccccc23)cc1OC (stereo not given)	2.6	3.1%	i
CCC(C)[C@H](N)c1nnc(SCC(=O)c2ccc(Cl)cc2)o1 (stereo not given in full)	nt	-0.3%	i
COc1ccc(N(C(=O)c2ccco2)C(C(=O)NC2CCCC2)c2ccc(N(C)C)cc2)cc1OC (stereo not given)	0.21	-6.6%	i
O=C(CCSCCC(=O)NCc1ccccc1)NCc1ccccc1	nt	-1.5%	i
CC1CC(C(O)c2ccccn2)C(=O)C(C(O)c2ccccn2)C1 (stereo not given)	0.2	-4.0%	i
COCc1cc(C)c2c(N)c(C#N)sc2n1	0.39	-1.8%	i
CSc1ccccc1NC(=O)c1cc(-c2cccs2)on1	-1.03	-1.9%	i
CCCC(=O)Nc1nn(C)c2nc3cc(C)ccc3cc12	-0.38	-2.1%	i
O=c1c(N2CCOCC2)nsnc1N1CCOCC1	-0.14	-4.5%	i
CCCn1c(=O)c2ccccc2n2c(SCN3C(=O)c4ccccc4C3=O)nnc12	2.27	-5.0%	i

Next part.
SMILES	WNV protease inh	Hsc70 ATP site	MT1-MMP reporter
Cc1nn(C(=O)c2ccco2)c(C)c1Br	nt	0.3%	i
COc1cccc(CN(C(=O)c2ccco2)C(C(=O)NC2CCCC2)c2cccnc2)c1 (stereo not given)	-0.66	5.0%	i
Cc1ccc(S(=O)(=O)NC2=NCN(CCN3CCOCC3)CN2)cc1	-0.5	0.5%	i
CCn1c(-c2cc(OC)c(OC)c(OC)c2)n[nH]c1=S	-0.06	17.1%	i
CCCC1C2CN(C(C)C)CC=C2C(C#N)=C(N)C1(C#N)C#N (stereo not given)	0.09	101.5%	i
CCCn1nc(C(=O)NCCN2CCOCC2)c2ccccc2c1=O	-0.69	8.5%	i
COc1ccc(C(=O)N2CCCCC2)cc1S(=O)(=O)Nc1ccccc1	-0.62	8.1%	i
CCN(CC)C(=O)C(C)N(C#N)c1nc(NC(C)C)nc(NC(C)C)n1 (stereo not given)	-0.53	3.8%	i
CC(C)(C)c1[nH]nc2c1C(Cc1ccccc1)C(C#N)=C(N)O2 (stereo not given)	-0.06	-6.2%	i
COC(=O)c1oc2ccccc2c1-n1cccc1	nt	-2.2%	i
CCOc1ccc(-n2c(Cc3cc(=O)[nH]c(=O)[nH]3)nnc2SCC(=O)NC2CCCC2)cc1	0.86	6.1%	i
CC1(c2ccc(Cl)cc2Cl)OCC(Cn2ccnc2)O1 (stereo not given)	0.11	0.8%	i
Oc1c(CN2CCc3ccccc3C2)cc(Cl)c2cccnc12	2.74	5.9%	5.81µM*
CCCNC(=O)c1ccc(CN2CCc3ccccc3C2)cc1	nt	-3.2%	i
O=C(Cc1ccccc1)n1nc(-c2ccccc2)nc1NCc1ccco1	-0.67	-2.9%	i
O=C(c1cccc(F)c1)N1CCN(C(=O)c2nn3cccnc3c2Cl)CC1	-0.74	-0.8%	i
O=C(CSc1ncccn1)N1CCN(C(c2ccccc2)c2ccccc2)CC1	nt	1.1%	i
O=C(c1cc(-c2ccco2)on1)N1CCN(C(c2ccccc2)c2ccccc2)CC1	-1.22	-21.4%	i
COC(=O)c1nnn(-c2nonc2N)c1CN1CCc2ccccc21	-0.11	1.8%	i
COc1cccc(C2c3c(oc4ccccc4c3=O)C(=O)N2CCCN2CCOCC2)c1 (stereo not given)	-0.76	0.3%	i
Nc1cc(C2CCCC2)nn1-c1ccccc1	0.55	1.3%	i
CCOc1ccc(C(=O)N2CCN=C2SC)cc1OCC	-0.25	-5.4%	i
CCN(CC)c1nc(Nc2ccccc2)nc(Oc2ccc(=O)[nH]n2)n1	0.03	2.9%	i
O=C(CCc1ccc(S(=O)(=O)N2CCOCC2)cc1)N1CCN(Cc2ccc3c(c2)OCO3)CC1	nt	0.7%	i
CCc1nc2ccccc2n1CC(C)C(=O)O (stereo not given)	nt	2.3%	i

(listing goes on)
SMILES	WNV protease inh	Hsc70 ATP site	MT1-MMP reporter
CCn1c(C(=O)NCCCN2CCc3ccccc3C2)cc2sccc21	-0.67	3.5%	i
Cc1ccnc(SCCn2c(N3CCN(c4ccccc4)CC3)nc3c2c(=O)[nH]c(=O)n3C)n1	1.28	-1.2%	i
CCOc1ccc2nc(NCCNC(=O)CC)c(C#N)cc2c1	-0.24	8.1%	i
Cc1cc(=O)oc(C)c1C(=O)NCc1ccco1	nt	3.6%	i
Cc1cc(Br)c(S(=O)(=O)NCCN2CCOCC2)cc1C	-0.31	1.6%	i
CCNC(=O)C1CCCN1S(=O)(=O)c1ccc(C)cc1 (stereo not given)	nt	-1.6%	i
CCOP(=O)(c1ccccc1)C1(O)CCCCC1 (stereo not given)	nt	1.7%	i
Cc1ccccc1C(C(=O)NCc1ccccc1)N(Cc1ccco1)C(=O)c1ccccn1 (stereo not given)	nt	2.3%	i
CC(=O)Nc1ccc(NC(=O)Oc2ccccc2)cc1	0.7	-1.6%	i
OCc1nn2c(c1Br)NC(c1ccccc1)CC2C(F)(F)F (stereo not given)	0.22	-0.4%	i
CCn1c(SCC(=O)NCc2ccc(C)cc2)nnc1-c1ccncc1	-0.16	0.5%	i
O=C(Cc1cccs1)Nc1nc2c(s1)CCCC2	-0.29	-5.0%	i
COc1ccc(N(CC(=O)NC2CCCCC2)C(=O)CNC(=O)c2ccco2)c(OC)c1	nt	5.3%	i
COc1ccc(C)cc1S(=O)(=O)N(CC(=O)O)c1ccccc1	1.31	-0.3%	i
COc1ccccc1CNS(=O)(=O)c1ccc2[nH]cc(C(=O)O)c(=O)c2c1	0.91	-4.9%	i
Oc1c(C=Nc2cccnc2)sc2ccccc12	-1.41	-30.2%	i
CC(O)[C@H](NC(=O)C1(c2ccccc2)CCN(C(=O)OC(C)(C)C)CC1)C(=O)O (stereo not given in full)	-0.8	1.9%	i
CC(C)N1C(=S)SC(C)(C)C1n1oc(=O)n(-c2ccc(Cl)c(Cl)c2)c1=O (stereo not given)	nt	0.7%	i
CC1CCCCN1CCNc1nc(=S)[nH]c2ccccc12 (stereo not given)	-1.74	-1.2%	i
CC1CCC(C(=O)NC(C(=O)N2CCC(N3CCCCC3)CC2)C(C)C)CC1 (stereo not given)	1.51	1.9%	i
CCN1CCc2c(C#N)c(NCc3ccccc3)nc(N(CC)CC)c2C1	-0.71	-4.2%	i
CC(C)(C)OC(=O)N1CCC(C(=O)N[C@H](Cc2ccccc2)C(=O)O)CC1	-0.7	5.9%	i
CCCc1ccc(-c2ccc(F)c(N)c2)nc1	1.06	-4.6%	0.66µM*
Cc1cc(C)nc(N2CCCC(C(=O)Nc3nc4ccc(S(C)(=O)=O)cc4s3)C2)n1 (stereo not given)	-1.03	0.1%	i
O=C(c1cccc2c1-c1ccccc1/C2=N/O)N1CCCCC1	-1.34	0.0%	i

(listing goes on)
SMILES	WNV protease inh	Hsc70 ATP site	MT1-MMP reporter
COCc1[nH]nc2c1C(c1ccccc1OC)C(C#N)=C(N)O2 (stereo not given)	0.22&1.74	4.0%	i
CCOC(=O)N1CCN(c2ncnc3c2oc2nc(C)c4c(c23)CC(C)(C)OC4)CC1	-0.28	0.9%	i
O=S(=O)(NC1CCCCC1)c1ccc(Br)cc1	-0.4	-0.6%	i
O=[n+]1c2c(n([O-])c3cc(F)c(N4CCCC4)cc31)CCC2	-1.22	17.4%	i
Cc1nnc2n(C3CCCCC3)c(=O)c3c4c(sc3n12)CCC4	-0.46	-1.0%	i
c1ccc(Cn2ccnc2-c2ccco2)cc1	0.46	-1.6%	i

Results in MT1-MMP reporter (3 entries from above):
Compound | MT1-MMP reporter
COc1ccccc1CNS(=O)(=O)c1ccc2[nH]cc(C(=O)O)c(=O)c2c1 | i
COc1cccc(/C=N/NC(=O)CO/N=C(\C)c2cccs2)c1OC | i
O=C(c1cc(-c2ccco2)on1)N1CCN(C(c2ccccc2)c2ccccc2)CC1 | i
